# Compound activity as filed in PubChem BioAssay.
# ALR H2O2 inh = blocks human ALR sulfhydryl oxidase activity; P55789; purified ALR, DTT oxidation, H2O2 HRP-luminol luminescence; inhibition, % (no concentration beside the values); 290,000 compounds, 3.8% hits; AID 485317;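 active = mean and each replicate at 75% or more; inconclusive = only one of the two met; inactive = neither met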;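 note: stock transfer was 7.5 nL into about 7.5 µL; 0% = neutral wells and 100% = wells with inactivated enzyme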
# E coli growth = E. coli growth inhibition. OD600 absorbance (test concentration not listed). 330,000 compounds, 0.21% hits. Escherichia coli growth, OD600, 23 h; stronger effect = lower value;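 active = OD600 absorbance below the run mean of sample wells minus 3.6 SD, in any replicate, cut at about 0.56 in these data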;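 note: stock transfer was 300 nL into about 60 µL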
# FGF22 binding = binders of recombinant human FGF22 by thermal shift | SYPRO orange fluorescence; percent of sucrose octasulfate shift, DMSO zero | calls only at 9.99 µM | 340,000 compounds, 1.5% hits | AID 651658;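 active = melting point raised past a set limit in the mean and every replicate; inconclusive = no clear call; three in four hits are not shown here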
# Target sequence (Q9HCT0 whole entry, looked up): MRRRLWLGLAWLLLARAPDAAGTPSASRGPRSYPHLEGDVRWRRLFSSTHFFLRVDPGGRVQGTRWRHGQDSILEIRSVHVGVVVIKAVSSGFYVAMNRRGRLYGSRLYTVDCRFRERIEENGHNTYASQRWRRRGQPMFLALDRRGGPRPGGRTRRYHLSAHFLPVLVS
# Ecoli rRNA inh = inhibits bacterial ribosomal RNA function over humanized ribosomes. E. coli WT GFP vs humanized-ribosome RFP mutants, fluorescence, 24 h; stronger effect = lower value; DMSO median 0, no signal -100. GFP signal change (wild-type ribosome), % (concentration not given with the values). 350,000 compounds, 1.6% hits;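 active = significant combined selectivity score with lowered wild-type GFP, culture density cut under 30%, mutant RFP and density less affected; inactive = any of these conditions unmet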; note: one replicate is shown; some compounds called inactive have numbers as strong as hits
# Beta2AR agonist = agonists of human beta-2 adrenergic receptor inducing internalization; P07550; Am2.2-beta2AR cells, FAP receptor internalization, flow cytometry; reference of the scale not given here; response, % (no concentration beside the values); 340,000 compounds, 0.43% hits;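 active = response above a set limit, near 3 SD of response in nonfluorescent compounds, cut at about 42% in these data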;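 note: stock transfer was 100 nL into about 11 µL; a reference agonist was the positive control; negative values mostly stem from fluorescent compounds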
# Target sequence (P07550 whole entry, looked up): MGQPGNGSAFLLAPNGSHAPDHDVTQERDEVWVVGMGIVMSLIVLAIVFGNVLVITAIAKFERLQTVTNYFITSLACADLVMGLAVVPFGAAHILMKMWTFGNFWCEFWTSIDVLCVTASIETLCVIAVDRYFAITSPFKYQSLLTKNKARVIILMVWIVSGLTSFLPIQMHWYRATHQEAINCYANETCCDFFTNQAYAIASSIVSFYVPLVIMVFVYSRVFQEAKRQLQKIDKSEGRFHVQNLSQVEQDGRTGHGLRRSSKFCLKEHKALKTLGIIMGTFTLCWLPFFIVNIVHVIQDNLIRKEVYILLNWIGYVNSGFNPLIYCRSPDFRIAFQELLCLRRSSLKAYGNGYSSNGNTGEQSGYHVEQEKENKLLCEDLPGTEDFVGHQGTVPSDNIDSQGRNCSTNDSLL
# HNF4A DNA FP = change in binding of human HNF4 alpha to DNA | P41235 | HNF4a-FITC DNA binding, fluorescence polarization, 1 h | activity change, % at 10 µM | 360,000 compounds, 0.3% hits; in the data active = activity change above about 30%, passing the limit was not always enough;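 note: controls were the assay level and a saturating level of protein; the project sought stronger binding though the title names inhibitors; some compounds called inactive have numbers as strong as hits; positive values seem to mean higher polarization but the record does not say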
# UCH37 DUB inh = inhibitors of human deubiquitinating enzyme UCH37. 330,000 compounds, 0.33% hits. purified proteasome/UCH37, Ub-AMC cleavage fluorescence. inhibition, % (concentration not given with the values);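 active = mean of two replicates above 20%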;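 note: 0% = compound-free wells with enzyme and 100% = wells lacking proteasome; stock transfer was 100 nL into about 20 µL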
# Target sequence (Q9Y5K5 whole entry, looked up): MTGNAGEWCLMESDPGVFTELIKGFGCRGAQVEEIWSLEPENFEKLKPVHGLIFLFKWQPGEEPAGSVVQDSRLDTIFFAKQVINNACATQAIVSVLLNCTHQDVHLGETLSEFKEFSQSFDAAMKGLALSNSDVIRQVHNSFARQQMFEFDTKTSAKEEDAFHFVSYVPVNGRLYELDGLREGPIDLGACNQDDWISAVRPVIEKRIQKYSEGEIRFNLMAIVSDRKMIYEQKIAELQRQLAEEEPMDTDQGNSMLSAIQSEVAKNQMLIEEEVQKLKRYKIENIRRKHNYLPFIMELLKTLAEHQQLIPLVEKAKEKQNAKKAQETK
#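 assay system = human UCH37 enzyme supplied as purified proteasome complex | amount = proteasome at 0.15 nM in the dispensed enzyme solution | schedule = 30 min compound-proteasome preincubation then 25 min substrate reaction, room temperature | measured by = fluorescence, ex 355 nm, em 460 nm | benchmarks = no-proteasome wells (full inhibition) and compound-free wells (no inhibition)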
# Ecoli rRNA inh OD600 = further read-out of Ecoli rRNA inh, marked with its call; OD600 change, %; measured here: OD600 growth;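 optical density of the mix in the first replicate; 0 = DMSO median and -100 = no signal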
# Ecoli rRNA inh RFP = also measured in Ecoli rRNA inh; calls as there; RFP signal change, %; measured here: RFP humanized mutant strains;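 first replicate; 0 = DMSO median and -100 = no signal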
# * = called active by the depositor; i = inactive; ? = inconclusive; · = no result given; & = joins results of further samples.
SMILES,ALR H2O2 inh,E coli growth,FGF22 binding,Ecoli rRNA inh,Ecoli rRNA inh OD600,Ecoli rRNA inh RFP,Beta2AR agonist,HNF4A DNA FP,UCH37 DUB inh
COC(=O)C1CCCCN1C(=O)c1ccc(OC2CCN(C(C)=O)CC2)c(OC)c1 (stereo not drawn),0,0.73,i,13,6,-1.1,6,-1.1,5.1
CN(CC(=O)Nc1ccc(Cl)c(Cl)c1)CC(=O)N1CCc2ccccc21,·,·,i,-22,-49,24,·,-0.1,·
Cc1ccc(CNC(=O)CSc2nc(N3CCCCC3)nc(N3CCCCC3)n2)cc1,·,0.79,·,·,·,·,-1,0.0,4.6
COc1ccc(N(C)C(=O)Nc2ccc3nsnc3c2)cc1,·,0.69,i,-3,2,-2.5,-1,2.2,0.2
CN(C)C=Nc1ccc2nc3c(cc2c1)[nH]c1ccccc13,6,0.63,i,-8,-17,-4.2,15,2.5,i
O/C(=C\Sc1nnc(Cc2ccccc2)o1)c1ccc(F)cc1,-5,0.65,·,·,·,·,15,1.8,-1.3
c1csc(-c2nn[nH]n2)c1,23,0.7,·,·,·,·,4,-0.1,-1.5
CCOC(=O)c1ccc(/[N+]([O-])=C/c2ccccc2)cc1,?,·,i,-2,2,6.3,-4,-0.8,4.2
Cc1cccc(C)c1NC(=O)CN(C)C(=O)CN1C(=O)NC2(CCCC2)C1=O,1,0.68,i,1,11,-2.9,-11,0.6,-1.4
O=C(NCc1ccccc1)c1cccc(NC(=O)c2ccccc2)c1,·,·,i,-5,-5,2.8,-8,2.0,·
COc1ccc(CCNCC(O)c2ccccc2)cc1 (stereo not drawn),-5,0.66,i,8,-2,1.6,-1,0.0,-0.7
O=C(COc1ccc(F)cc1Cl)Nc1ccc(S(=O)(=O)Nc2nccs2)cc1,0,0.61,i,1,2,0.3,17,2.6,2.8
O=C(c1ccc(CS(=O)c2cccc(Cl)c2)o1)N1CCN(C2CCCCC2)CC1 (stereo not drawn),-7,0.61,i,0,-30,49,2,-0.1,3.4
CC(OC(=O)CCCc1c[nH]c2ccccc12)C(=O)Nc1ccc(S(N)(=O)=O)cc1 (stereo not drawn),82*,0.72,i,-10,-9,1.7,11,-0.2,-1.7
O=C(NC(=S)Nc1cccc(Cl)c1N1CCCCC1)c1ccc2c(c1)OCCO2,-20,0.74,·,·,·,·,-5,11,3.4

# Compound profiles (already shown). Values in the order: ALR H2O2 inh | E coli growth | FGF22 binding | Ecoli rRNA inh | Ecoli rRNA inh OD600 | Ecoli rRNA inh RFP | Beta2AR agonist | HNF4A DNA FP | UCH37 DUB inh
# CCOC(=O)c1ccc(/[N+]([O-])=C/c2ccccc2)cc1 is entered as ? | · | i | -2 | 2 | 6.3 | -4 | -0.8 | 4.2
# O=C(c1ccc(CS(=O)c2cccc(Cl)c2)o1)N1CCN(C2CCCCC2)CC1 (stereo not drawn) is entered as -7 | 0.61 | i | 0 | -30 | 49 | 2 | -0.1 | 3.4
# O/C(=C\Sc1nnc(Cc2ccccc2)o1)c1ccc(F)cc1 is entered as -5 | 0.65 | · | · | · | · | 15 | 1.8 | -1.3

# The list continues.
SMILES,ALR H2O2 inh,E coli growth,FGF22 binding,Ecoli rRNA inh,Ecoli rRNA inh OD600,Ecoli rRNA inh RFP,Beta2AR agonist,HNF4A DNA FP,UCH37 DUB inh
O=C(Cc1cccs1)Nc1ccc(-c2nnc(-c3ccco3)o2)cc1,-2,0.77,·,17,8,0.3,5,0.7,-11
O=C(Cn1c(C(=O)OCCO)cc2ccccc21)c1ccccc1,-1,0.63,i,0,8,2.7,3,-2.8,3.1
CC1=NN(c2ccc(C(F)(F)F)cn2)C(=O)C1,-6,0.7,i,16,10,-5.1,8,-3.0,7.2
O=C1CC(N2CCN(c3cccc(C(F)(F)F)c3)CC2)C(=O)N1c1ccccc1 (stereo not drawn),-11,0.69,·,·,·,·,2,1.5,5.8
CCCOc1ccc(C2CC(=O)Nc3cc(OC)c(OC)cc32)cc1 (stereo not drawn),11,0.66,i,-5,-1,-0.1,-1,1.7,2.5
O=S(=O)(NCCc1cn2ccccc2n1)c1cccs1,-5,0.7,i,12,-2,-3.8,-5,-0.4,0.6
CC(C)NC(=O)Nc1ccc2c(c1)C(=O)N([C@H](C)CO)C[C@H](C)[C@@H](CN(C)S(=O)(=O)c1cn(C)cn1)O2,4,0.7,i,4&8,3&2,1.6&9.3,-8,-0.8,3.3
O=C(NC1CCCC1)c1cccc2c1C(=O)c1ccc(N3CCCCC3)cc1S2(=O)=O,-6,0.64,i,3,0,-4.4,-4,52*,1.4
CCOC(=O)c1cc(CC)sc1NC(=O)C1CC1,17,0.69,i,-22,-31,-12,-6,-0.1,0.0
Cc1ccc(NC(=O)CCC(=O)N/N=C/c2cccs2)cc1C,26,·,·,·,·,·,-3,-3.4,·
CC(C)c1nc2ccccn2c1NC1CCCCC1,·,0.66,·,·,·,·,17,-0.6,-27
CCCCOc1ccc(C(=O)OC2CC(C)N(C)CC2C)cc1 (stereo not drawn),·,0.7,·,·,·,·,0,2.4,1.9
Cc1ccc(C(=O)Nn2cnnc2)cc1Cl,81*,0.66,i,-4,6,-2.4,-3,-0.5,3.7
CCOc1c(Cl)cc(C(=O)Nc2cccc(C(=O)O)c2)cc1Cl,-4,0.7,i,-27,-23,-3.8,2,-0.6,4.9
Cc1cccc(C)c1NC(=O)c1c(-c2ccccc2)noc1C,0,0.67,·,·,·,·,6,-2.6,0.5

# Taken from above:
# E coli growth, `Cc1ccc(C(=O)Nn2cnnc2)cc1Cl` stands at 0.66
# E coli growth, `CCCCOc1ccc(C(=O)OC2CC(C)N(C)CC2C)cc1` (stereo not drawn) stands at 0.7

# More records follow.
SMILES,ALR H2O2 inh,E coli growth,FGF22 binding,Ecoli rRNA inh,Ecoli rRNA inh OD600,Ecoli rRNA inh RFP,Beta2AR agonist,HNF4A DNA FP,UCH37 DUB inh
Cc1ccc(NC(=O)c2cc(-c3ccc4c(c3)OCO4)on2)cc1,·,0.67,i,16,18,4.1,5,-0.6,-28
O=C(Nc1ccc2c(c1)OCCO2)C(c1ccc(F)cc1)N1CCCCC1 (stereo not drawn),-5,0.68,·,·,·,·,7,-2.4,0.5
O=C(CNc1ccc(Br)cc1)Nc1cccc(S(=O)(=O)N2CCCC2)c1,4,0.64,i,-11,-49,15,-7,0.9,-4.0
Cc1ccc(C(=O)Nc2nc(=O)[nH]s2)cc1,20&-16,0.68&0.7,i,2&4,5&-5,-1.5&-3.6,3&3,1.9&-3.2,1.8&3.8
O=C(CN1CCN(Cc2ccccc2F)C1=O)NC1CCCC1,-5,0.71,i,10,3,-7.0,-5,-2.4,5.3
COc1ccc(S(=O)(=O)NCc2cccnc2)cc1,-1,0.67,i,12,9,0.3,-4,0.8,1.2
Cc1ccc(OCC(O)CN2CCN(c3ccccn3)CC2)c(C)c1 (stereo not drawn),-5,0.68,i,-17*,2.0*,0.2*,-7,-0.4,2.3
O=C(NC(c1ccccc1)c1ccc2ccccc2n1)C1CCN(Cc2ccc(Cl)c(Cl)c2)CC1 (stereo not drawn),·,·,i,8,-28,51,·,-2.2,·
CCCn1c(=O)c2ccccc2n2c(SCC(=O)Nc3cc(C)on3)nnc12,·,0.73,·,·,·,·,-9,-0.5,-108
O=C(NCc1cccc(Br)c1)c1cc(-c2ccccc2)nn1CC1CC(c2cccc([N+](=O)[O-])c2)=NO1 (stereo not drawn),1,0.72,·,·,·,·,1,2.8,1.1
Cc1nc(SCC(=O)Nc2c(C)n(C)n(-c3ccccc3)c2=O)c2cnn(-c3ccccc3)c2n1,·,0.67,i,-4,-11,-0.6,-5,1.3,4.7
Cc1cccc(NC(=O)c2cc[n+]([O-])cc2)c1C,-5,0.66,i,0,13,-1.6,10,2.8,2.9
CC(C)[C@H](NC(=O)C1CCN(S(=O)(=O)c2ccc(F)cc2)CC1)C(=O)NCc1ccncc1,-2,0.66,i,12,6,1.8,0,0.0,-1.2
O=c1[nH]cnc2c1ncn2Cc1ccc([N+](=O)[O-])cc1,·,0.67,i,2,13,-1.8,0,1.9,1.5
CC(=O)c1ccc(NS(=O)(=O)c2ccc(N/C=C/C(=O)c3ccc(F)cc3)cc2)cc1,4,0.73,i,-11,-1,-1.2,14,2.7,-9.3
CS(=O)(=O)Nc1cccc(-c2cc(NC=O)c3ncc(-c4ccc(F)c(Cl)c4)n3c2)c1,·,·,i,-4,-19,-0.1,·,7.6,·
CC(=O)N1CCOc2ccc(S(=O)(=O)NCC3CCC(C(=O)Nc4ccc(C)cn4)CC3)cc21 (stereo not drawn),2,0.67,i,-5,0,1.4,-6,-1.3,1.3
Cc1noc(C)c1S(=O)(=O)N(CC(=O)N1CCn2c1nc1ccccc12)c1ccc(C(C)C)cc1,-105,0.75,i,6,1,4.7,-3,0.1,1.6
COc1cc(C)c(NC(=S)Nc2cccc(Cl)c2C)cc1OC,91*,0.67,i,16,16,0.6,5,0.4,2.8
O=C(Cc1ccc(F)cc1)N/N=C/c1ccccn1,-6,·,i,3,2,-1.2,-4,2.4,·
CCC(Oc1ccc2c(=O)c(-c3ccccc3OC)coc2c1)C(=O)OCc1ccccc1 (stereo not drawn),·,0.75,·,·,·,·,3,6.4,4.4
C/C(CC(=O)Nc1ccc(Cl)cc1Cl)=N\NC(=O)c1ccncc1,45,·,i,-3,-15,-1.4,-5,1.2,·
O=C(Cc1cccs1)Nc1ccccn1,-28,0.68,·,·,·,·,0,-1.2,4.9
O=C(CSc1ccc(F)cc1)Nc1nnc(-c2ccco2)o1,-3,0.63,i,2,2,-2.1,4,-1.4,3.2
COc1ccc(NC(=O)CSc2nc(N)cc(N)n2)cc1S(=O)(=O)N1CCCCC1,2,0.69,i,0,-13,0.4,-5,1.6,3.7
COCCn1c(SC)nnc1-c1c[nH]c2ccccc12,-1,0.65,i,2,6,-7.3,-7,-3.4,0.6
COc1cc2c(cc1NS(=O)(=O)N1CCCCC1)oc1ccccc12,-3,0.72,·,·,·,·,-13,1.4,-1.0
O=C(Nc1cc(-c2nn(CC(=O)N3CCCCC3)c(=O)c3ccccc23)ccc1N1CCOCC1)c1ccc(Cl)cc1,-5,0.67,·,14,13,1.0,9,3.3,-25
Cc1ccc(S(=O)(=O)NCCCNC(=O)c2ccccc2)cc1,-6,0.72,·,·,·,·,-3,4.5,1.4
CCn1c(C(=O)OC)cc2c1ccn2-c1ccc(F)cc1,-2,0.67,·,·,·,·,0,-0.1,0.2
NC(=S)N1N=C(c2ccccc2)CC1=O,·,·,i,20,-10,-4.3,0,-2.9,·
CCOC(=O)c1c(-c2ccc(C)o2)csc1NC(=O)CSc1ncn[nH]1,1,0.66,·,·,·,·,-1,-2.6,2.2
CCOC(=O)CCC(=O)NNC(=O)c1ccc(NC(=O)c2ccccc2)cc1,·,0.68,i,1,4,-0.7,-2,0.9,0.4
CCN(CC)S(=O)(=O)c1cc(NC(=O)CCNC(=O)c2ccco2)ccc1C,2,0.64,i,-5,-27,1.0,12,0.4,1.8
Cn1nc(C(=O)Nc2nc3ccccc3[nH]2)c2ccccc2c1=O,-8,0.69,·,·,·,·,56*,-1.2,3.9
Cc1cc(C)n2nc(N)c(N=Nc3ccc4c(c3)OCO4)c2n1,-9,0.73,·,·,·,·,1,4.6,6.3
COc1ccc(N2CC(C(=O)NCc3ccco3)CC2=O)cc1 (stereo not drawn),-2,0.67,i,11,2,-3.5,5,0.1,3.5
CCOC(=O)CC(=O)c1[nH]c(C)c(C(=O)OCC)c1C,3,0.68,i,-2,5,0.6,6,-2.6,1.7
O=C(Nc1cccc(C(F)(F)F)c1)C1Cc2c(-c3ccc(Cl)cc3)ccnc2O1 (stereo not drawn),·,·,i,-3,-6,0.1,·,-2.7,·

# Not all compounds are listed; rates above refer to the full screens.
